# Vaccinia mCherry – inhibitors of vaccinia virus infection (mCherry reporter signal) | Vaccinia virus mCherry reporter infection, fluorescence; about a quarter of the inactives have no number | AID 720579 | Potency, µM (top dose mostly 36.5 µM), for the others: at the highest dose activity change, negative = inhibition, most hits filed as inhibitors | 310,000 tested, 0.63% active; active = well fitted inhibition curve with a large enough effect; inconclusive = small, poorly fitted or top-dose-only effect; inactive = no such curve, though single readings can be large or run the other way; tested in A549 cells; further: nearly all actives have a fitted effect of over 35% in size; inactives centre near -10
# Vaccinia Venus – vaccinia inhibition (Venus reporter) | Vaccinia virus Venus reporter expression, fluorescence | Potency, µM (top dose mostly 36.5 µM), for inactives: top-dose activity change, negative = inhibition, actives largely listed as inhibitors | 330,000 tested, 0.46% active; active means well fitted inhibition curve with a large enough effect; inconclusive means small, poorly fitted or top-dose-only effect; inactive means no such curve, though single readings can be large or run the other way; tested in A549 cells; further: nearly all actives have a fitted effect of over 30% in size; inactives centre near -10
# Starred values were filed as active, the others as inactive; i = inactive; u = inconclusive; x = not tested or not shown; & = joins results of further samples; [ ] = dose if it differs, or a comment. On the % scale 0 is the no-effect control and ±100 the full control effect; potency means the concentration at half of the fitted maximal effect.
# The line under a structure holds: Vaccinia mCherry | Vaccinia Venus
O=C(CSc1nnc2c(n1)[nH]c1ccc(S(=O)(=O)N3CCOCC3)cc12)Nc1ccc(F)c(F)c1
 : i | -13.3%
CCOC(=O)c1cnc2c(Cl)cc(Cl)cc2c1Nc1ccccc1OC
 : -0.9% | 2.5%
CSCSC1=C(C#N)C(c2ccccc2Cl)C(C(C)=O)=C(C)N1 (configuration not stated)
 : -18.3% | -9.8%
COc1ccc(/C=C/C(=O)NC(CCSC)C(=O)O)cc1 (configuration not stated)
 : 3.1% | -3.7%
CCn1cc(C2N3CC4(C)CN2CC(C)(C3)C4=O)c2ccccc21 (configuration not stated)
 : i | -12.8%
Cc1cc(NC(=O)c2ccc(Cl)c(S(=O)(=O)N3CCOCC3)c2)no1
 : -8.9% | -5.9%
Cn1cnc([N+](=O)[O-])c1SCCO
 : -12.2% | -10.4%
CCOc1ncccc1C(=O)Nc1ccc(Cl)c(S(=O)(=O)N2CCCC2)c1
 : -9.5% | -22.5%
CC(NC(=O)c1ccco1)C1COc2ccccc2O1 (configuration not stated)
 : x | -8.2%
Cn1c(=O)c2c(nc(CN3CCN(C(=O)c4ccco4)CC3)n2CC(=O)C(C)(C)C)n(C)c1=O
 : -1.5% | 3.2%
CCCC(=O)N1c2ccccc2-c2nnc(SC)nc2OC1c1sccc1C (configuration not stated)
 : -6.9% | -7.1%
CC1CCCC(C)N1C(=O)COC(=O)c1n[nH]c(=O)c2ccccc12 (configuration not stated)
 : i | -13.1%
Cc1c(CCOC(=O)c2ccc([N+](=O)[O-])cc2)sc[n+]1CC(=O)c1ccccc1
 : -14.1% | -12.4%
Cc1cccc(NC(=O)C(=O)NCC(c2ccc3c(c2)OCO3)N2CCOCC2)c1C (configuration not stated)
 : -11.1% | -12.4%
COc1ccccc1NC(=S)N(Cc1ccc(C)cc1)Cc1ccccn1
 : -0.1% | -4.0%
CC1CCN(C(=O)COC(=O)CNC(=O)c2ccccc2F)CC1
 : -11.1% | -14.6%
CCC(C)/C(C)=N/NC(=O)c1ccc(COc2ccc(Cl)c(C)c2)cc1 (configuration not stated)
 : -20.2% | -13.1%
COc1ccc(C(CC(=O)N2CCCC2)c2c(O)cc(OC)cc2OC)cc1 (configuration not stated)
 : i | -5.2%
CCC(C)NC(=O)C1CCC(=O)N(c2cc(OC)c(OC)c(OC)c2)C1c1ccc(OC)cc1 (configuration not stated)
 : -4.5% | -4.3%
COc1ccccc1CC(=O)N(CCC1=CCCCC1)c1c(N)n(Cc2ccccc2)c(=O)[nH]c1=O
 : -0.4% | -1.9%
CCOc1ccc(S(=O)(=O)N2CCCCC2)cc1NC(=O)Cc1ccsc1
 : u | -11.4%
Cc1cccc(Nc2cc(=O)n(C)c(=O)[nH]2)c1
 : i | -1.9%
COc1cc2ccccc2ccc1=NO
 : -17.6% | u
O=C(O)c1cccc(NC(=O)c2cn(-c3ccccc3)nc2-c2ccc(F)cc2)c1
 : 0.0% | -7.9%
N#Cc1ccc(COn2nnc3ccccc32)cc1
 : -22.6% | -0.6%
O=C(O)C1C2CCC(O2)C1C(=O)NCc1ccncc1 (configuration not stated)
 : -1.6% | 0.9%
Cc1cccc(OCC(=O)Nc2sc3c(c2C#N)CCC3)c1
 : i | -6.2%
O=C(COc1cccc2ccccc12)N1CCN(c2ccccc2)CC1
 : x | 8.3%
O=C(Cc1cscn1)N1CCOc2ccc(CN3CCN(c4ccccn4)CC3)cc2C1
 : -9.5% | -2.3%
Cc1nnc(NC(=O)C2CCCN(c3ncccn3)C2)s1 (configuration not stated)
 : i | -7.7%
CC(=O)c1c(C)oc2ccc(NS(=O)(=O)c3ccc(C(C)C)cc3)cc12
 : -9.6% | -9.7%
Cc1ccc(-n2c(SCC(=O)Nc3cccc(F)c3)nc3c(oc4ccccc43)c2=O)cc1C
 : -3.7% | -8.4%
CC(C(=O)O)c1cccc(Oc2ccccc2)c1 (configuration not stated)
 : i | -15.2%&-7.4%
CCCn1cnc2cc(NCc3ccccn3)ccc21
 : -10.9% | -2.0%
c1coc(CNC2C3CC4CC(C3)CC2C4)c1 (configuration not stated)
 : -16.0% | -6.0%
O=C(NCc1ccc2c(c1)OCO2)NC1CCCCC1
 : -9.7% | -13.1%
CC(N=C1NS(=O)(=O)c2ccccc21)C(=O)NCCCc1ccccc1 (configuration not stated)
 : i | -3.5%
CCS(=O)(=O)Nc1cccc(C2=NN(S(=O)(=O)c3ccc(C)cc3)C(c3cccs3)C2)c1 (configuration not stated)
 : u | -29.1%
COc1cccc(Cn2c(CNS(=O)(=O)c3ccc(Cl)s3)nc3cccnc32)c1
 : -10.5% | -6.2%
Cc1c(Cl)cccc1NC(=O)C1Cc2ccccc2CN1C(=O)c1ccccc1 (configuration not stated)
 : -9.9% | -3.4%
COc1ccccc1CNC(=O)CSc1nc(=O)[nH]c2c1CCCC2
 : 1.9%[7.34 µM] | -6.5%[7.34 µM]
CCc1nc(C)ccc1OCC(=O)N(CC)CC
 : i | -10.0%
Cc1nc(C(=O)Nc2ccccc2)sc1C1(C)CC(c2cccc([N+](=O)[O-])c2)=NO1 (configuration not stated)
 : -19.4% | -14.2%
c1cncc(-c2noc(-c3cccc4ccccc34)n2)c1
 : -12.1% | -5.4%
O=C(NC1CCC(O)CC1)c1ccccc1OCc1ccc(F)cc1 (configuration not stated)
 : i | -1.9%
O=C(N=C1SC2CS(=O)(=O)CC2N1Cc1ccccc1)c1ccccc1 (configuration not stated)
 : i | -17.8%
O=c1c2cc(O)c(O)cc2oc2cc(O)c(C3OC(CO)C(O)C(O)C3O)c(O)c12 (configuration not stated)
 : 8.7% | 2.7%&-9.6%
COCCCn1[nH]c2c3c(ccc2c1=O)C(=O)c1ccccc1C3=O
 : x | u
CC(=O)C1C(N2CC2)CC2C3CC=C4CC(O)CCC4(C)C3CCC21C (configuration not stated)
 : -18.2% | u
CC(=O)NCCNC(=O)Cn1nnc(-c2ccccc2)c1COc1ccc2ccccc2c1
 : -1.9% | 8.3%

# (list continues)
# The line under a structure holds: Vaccinia mCherry | Vaccinia Venus
C=C[C@H](CC(C)C)N(Cc1ccccc1)S(=O)(=O)N(Cc1ccc(OC)cc1)[C@H](C=C)CC(C)C
 : i | -8.3%
O=c1[nH]c2ccccc2n1C1CCN(C(c2ccccc2OC(F)(F)F)c2nnnn2-c2ccc3c(c2)OCCO3)CC1 (configuration not stated)
 : u | u
CCn1ncc(-c2ccnc3cc(C(=O)O)nn23)c1C
 : i | -7.4%
CN(C)CC#Cc1cccc(-c2nc(C(=O)O)cc3c2[C@@H](CCO)N(S(=O)C(C)(C)C)C3)c1 (some centres not stated)
 : 7.2% | 4.9%
CCc1ccccc1NC(=O)N1C2CCCC1CC(NC(=O)C(C)(C)C)C2 (configuration not stated)
 : -10.7% | -10.6%
O=C([C@H]1O[C@@H](n2ccc(=O)[nH]c2=O)[C@H](O)[C@@H]1O)N(CCC1=CCCCC1)CC1CC1
 : -20.9% | 0.5%
O=C(CSc1nnc(NC(=O)c2ccco2)s1)NC1CCCC1
 : -12.4% | 0.6%
Cc1cccnc1NC(=O)C1CCCN1S(=O)(=O)c1ccc(Cl)cc1 (configuration not stated)
 : -10.5% | -7.7%
O=C(Cn1c2c(sc1=O)C1c3ccccc3OCC1CS2)Nc1ccc(Cl)c(Cl)c1 (configuration not stated)
 : -13.6% | -18.3%
COc1ccc(C)cc1S(=O)(=O)N1c2ccc(C)cc2C2CN(C)CCC21 (configuration not stated)
 : u | -8.0%

# Part of the list above, bar-delimited:
Compound | Vaccinia mCherry | Vaccinia Venus
CCn1ncc(-c2ccnc3cc(C(=O)O)nn23)c1C | i | -7.4%
CN(C)CC#Cc1cccc(-c2nc(C(=O)O)cc3c2[C@@H](CCO)N(S(=O)C(C)(C)C)C3)c1 (some centres not stated) | 7.2% | 4.9%
CCc1ccccc1NC(=O)N1C2CCCC1CC(NC(=O)C(C)(C)C)C2 (configuration not stated) | -10.7% | -10.6%

# The results go on:
# The line under a structure holds: Vaccinia mCherry | Vaccinia Venus
CCNC(=O)CCn1nc(-c2ccc(C)cc2)c2ccccc2c1=O
 : i | -11.4%
Oc1cnc2ccccc2c1CN1CCOCC1
 : i | -13.7%
CCN(C(=O)c1cc(Cl)ccc1OC)c1ccccc1C
 : x | -23.1%
CCC(C)NC(=O)C1CCN(S(=O)(=O)c2ccc3nc4c(c(C(=O)O)c3c2)CCCCC4)CC1 (configuration not stated)
 : i | -20.9%
CCOC(=O)CSc1nc2cc3c(cc2c(=O)n1CCCC(=O)NCCc1ccc(OC)c(OC)c1)OCO3
 : -14.8% | -9.2%
CC(=O)CC(C)(C)n1c[n+](C)nn1
 : i | -6.0%
O=C(Cc1ccccc1)c1c[nH]c(C(=O)C(Cl)(Cl)Cl)c1
 : -11.0% | -10.7%
CCN(C[C@H]1N[C@@](Cc2ccccc2)(C(=O)OC)[C@H]2C(=O)N(Cc3ccccc3)C(=O)[C@@H]12)C(=O)Nc1ccc(Cl)cc1
 : u | u
CC(C)(C)c1ccc(C(=O)NNC(=O)Cc2cccc3ccccc23)cc1
 : u | 0.0%
O=[N+]([O-])c1cccc(/C=C/c2ccc3cccc(O)c3n2)c1
 : u | -18.9%
CCOc1ccc(N(CC(=O)O)S(=O)(=O)c2cccnc2)cc1
 : -7.3% | -7.6%
O=C(COc1nsnc1N1CCOCC1)N/N=C/c1ccccc1O
 : 22.4µM* | u
O=c1oc2ccccc2c(O)c1C=Nc1cccnc1
 : i | -14.7%
Cc1ccc(C(=O)NNC(=O)CSc2nnc(C3CC3)n2C)cc1
 : -26.2% | -17.1%
Nc1[nH]nc2nc(-c3ccccc3)[nH]c(=O)c12
 : i | -14.9%
COc1cccc2sc(=NC(=O)CS(=O)(=O)c3ccc(F)cc3)n(C)c12
 : -16.7% | -7.3%
CCOc1cccc(CNCCO)c1OCc1ccc(Cl)cc1
 : -6.4% | -14.3%
COCCCNC(=O)c1cccc2c(=O)c(C)c(-c3ccccc3)oc12
 : 10.1% | -6.2%
Cc1ccc(C(=O)Nc2ccccc2C(=O)OCc2cc(=O)n3nc(C4CC4)sc3n2)cc1
 : -12.1% | 0.7%
Cc1ccc(-c2cc(C(F)F)n3ncc(C(=O)N4CCN(c5cccc(C)c5C)CC4)c3n2)cc1
 : -13.8% | -7.3%
CC(C)Cn1c(SC(C)C(=O)Nc2ccc3c(c2)OCCO3)nc2ccccc2c1=O (configuration not stated)
 : -4.8% | -9.2%
CC(C)(C)NC(=O)COC(=O)CCC(=O)c1ccc(Cl)cc1
 : 2.6% | 0.4%
CC1(C)OC2CCN3C(C(O)COS3(=O)=O)C2O1 (configuration not stated)
 : i | -14.4%
CCn1cc(/C=N/NS(=O)(=O)c2ccc(OC)cc2)c(C)n1
 : x | -10.6%
O=C(NC1CCCC1)c1ccc(CS(=O)(=O)c2ccc(Br)cc2)o1
 : -12.7% | -8.0%
Cc1ccc(C)c(N2CCN(c3ncnc4c3nc3n4CCCC3)CC2)c1
 : -13.2% | -4.8%
N#Cc1ccc(CSc2nnc(-c3ccc(Br)cc3)o2)cc1
 : -8.1% | 8.1%
CC(C)(C)OC(=O)N(CCc1ccccc1)Cc1ccccc1OCc1ccc(NC(=O)C2CCCC2)cc1
 : 1.6% | -4.2%
S=c1nc(-c2ccccc2Cl)n(Cc2cccnc2)c2c1CCCC2
 : -18.8% | -7.9%
Cc1ccc(O)c(CNCCNCc2cc(C)ccc2O)c1
 : u | -10.4%
Cc1cc(C)c(C)c(S(=O)(=O)NCc2ccc(C(=O)N3CCN(C)CC3)cc2)c1C
 : -16.8% | 4.2%
Cc1ccccc1CNC(=O)C(=O)NCC(c1cccs1)S(=O)(=O)c1ccc(Cl)cc1 (configuration not stated)
 : -28.8% | -14.9%
CCOc1ccccc1NC(=O)NCc1ccccc1
 : -14.8% | 1.0%
COc1ccc(N=C2SCC(=O)N2Cc2ccccc2)cc1
 : -3.7% | 0.1%
O=C(Cc1ccccc1)NNS(=O)(=O)c1ccc([N+](=O)[O-])cc1
 : -19.5% | -10.8%
Cc1cccc(CSCCNC(=O)CN2C(=O)c3ccccc3S2(=O)=O)c1
 : -8.9% | 0.1%
O=c1c2ccccc2nc(-c2ccc(Cl)cc2Cl)n1CCCn1ccnc1
 : x | -10.1%
COc1ccc(C)cc1N(CC(=O)NC1CCCC1)C(=O)CCC(=O)Nc1cc(C)on1
 : -8.3% | -23.0%
O=C(NCCc1ccc(O)cc1)c1ccc(Cl)cc1
 : x | -7.3%
Cc1ccc(N2CCN(S(=O)(=O)N3CCCCC3)CC2)cc1C
 : -6.5% | 1.8%
Cc1ccc(N(C(=O)c2sc(C)nc2C)C(C(=O)NC(C)(C)C)c2ccncc2)cc1 (configuration not stated)
 : -3.9% | -0.7%
O=C(Nc1ccc2c(c1)OCO2)C1CC(c2cccc(Br)c2)=NO1 (configuration not stated)
 : -4.2% | -13.2%
CC1(C)CC[C@]2(C)CC[C@@]3(C)C(=CCC4[C@@]5(C)CCC(O)C(C)(C)C5CC[C@@]43C)C2C1 (some centres not stated)
 : -4.3% | -28.4%
O=C(Nc1ccc(F)cc1F)C(Cc1ccccc1)N1Cc2ccccc2C1=O (configuration not stated)
 : i | -11.4%
N#Cc1ccccc1OCC(=O)N1CCN(CC(=O)Nc2ccc(F)cc2)CC1
 : -6.6% | 1.4%
NC(=O)NC(=O)CC1S/C(=N/N=C2\CSC(=O)N2)NC1=O (configuration not stated)
 : i | -8.1%
C=CCNC(=O)C(=O)NN=C1CCN(C)CC1
 : -3.9% | 2.3%
O=C(NCc1cccnc1)C1c2ccccc2C(=O)N1Cc1ccccc1 (configuration not stated)
 : 3.7% | -13.1%

# Source: PubChem
